ClpP mod: qHTS Assay for Activators of ClpP | purified B. subtilis ClpP, FRET peptide cleavage, 20 min | Potency, µM (titrated, usually from 57.5 µM), for inactives: at the highest dose activity change, negative = active | actives 1.9% (n = 340,000) | ATP-dependent Clp protease proteolytic subunit (Bacillus subtilis (strain 168)), P80244; active = well fitted falling curve with a large enough effect; inconclusive = small, poorly fitted or top-dose-only effect; inactive = no such curve, though single readings can be large or run the other way; also: potency is read from the fitted curve at half-maximal effect; the source files actives as falling curves though it sought activators and does not explain the sign; nearly all actives have a fitted effect of over 65% in size; many hits overshoot -100%
Target sequence (P80244 whole entry, looked up): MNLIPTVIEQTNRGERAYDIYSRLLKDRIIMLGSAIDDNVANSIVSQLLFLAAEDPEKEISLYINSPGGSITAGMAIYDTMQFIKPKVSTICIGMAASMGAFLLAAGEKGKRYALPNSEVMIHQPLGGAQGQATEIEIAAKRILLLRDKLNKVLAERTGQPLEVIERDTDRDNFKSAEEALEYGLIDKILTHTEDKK
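Purified B. subtilis ClpP, 10 microg/mL final in Tris/HCl pH8 with KCl, BSA, glycerol and Tween-20, cleaved an Abz/nitrotyrosine-quenched decapeptide. Fluorescence (ex 320, em 430) was read at 0 and 20 min at room temperature. Delta was normalized to 5.8 microM ADEP and DMSO/no-enzyme controls.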
Sfp PPTase inh: blocks B. subtilis Sfp PPTase activity; Potency, µM, without a hit: max response, negative = inhibition, actives largely listed as inhibitors; Biochemical Sfp PPTase activity, qHTS; actives 3.5% (n = 310,000); active = well fitted inhibition curve with a large enough effect; inconclusive = small, poorly fitted or top-dose-only effect, or another doubt; inactive = no such curve, though single readings can be large or run the other way;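 also: the enzyme is Sfp with the accession as filed and its product quenches rhodamine fluorescence; potency is read from the fitted curve at half-maximal effect; 0% = enzyme reaction without inhibitor and -100% = no enzyme wells; top concentration of the series not given in the record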
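Fluorescence-quenching assay with 15 nM Sfp, 5 uM rhodamine-CoA and 12.5 uM BHQ-2-labelled ybbR peptide in pH 7.6 Hepes/MgCl2 buffer. Enzyme was pre-incubated with compound for 15 min at room temperature. Rate was taken from the 30-min fluorescence change (525/598 nm).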
CtBP-E1A blk: inhibitors of CtBP/E1A interaction. AlphaScreen GST-E1A/His-CtBP binding, 1536-well; hits give low values; control for the full effect not named in the record. activity change, % (concentration not given with the values). actives 0.49% (n = 340,000). AID 651724; in the data active means activity change below about -65%; inconclusive means about -30% to -65%; inactive means above about -30%; also: % is scaled to controls: 0 for no effect and ±100 for the full control effect
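Steps: dispense buffer (Tris pH 8.0, NaCl 300 mM, TCEP 1 mM, BSA, Tween 20); add 5X protein mix (GST-E1A, His-CtBP, 125 nM each); pin 23 nL compound; 2 h at 37 °C, dark; add 5X beads (50 ug/mL); 1 h; read.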
TRPV1 PAM: potentiators of human vanilloid receptor 1 (TRPV1); Q8NER1; AID 540277; TRPV1-expressing cells, Fluo-8 calcium influx, capsaicin EC20 potentiation; host cell line not named in the record; control for the full effect not named in the record; potentiation, % at 8.33 µM; actives 0.02% (n = 320,000); active means potentiation above 80%; inconclusive means 30% to 80%; inactive means below 30%; also: 0% is about no effect
Target sequence (Q8NER1 whole entry, looked up): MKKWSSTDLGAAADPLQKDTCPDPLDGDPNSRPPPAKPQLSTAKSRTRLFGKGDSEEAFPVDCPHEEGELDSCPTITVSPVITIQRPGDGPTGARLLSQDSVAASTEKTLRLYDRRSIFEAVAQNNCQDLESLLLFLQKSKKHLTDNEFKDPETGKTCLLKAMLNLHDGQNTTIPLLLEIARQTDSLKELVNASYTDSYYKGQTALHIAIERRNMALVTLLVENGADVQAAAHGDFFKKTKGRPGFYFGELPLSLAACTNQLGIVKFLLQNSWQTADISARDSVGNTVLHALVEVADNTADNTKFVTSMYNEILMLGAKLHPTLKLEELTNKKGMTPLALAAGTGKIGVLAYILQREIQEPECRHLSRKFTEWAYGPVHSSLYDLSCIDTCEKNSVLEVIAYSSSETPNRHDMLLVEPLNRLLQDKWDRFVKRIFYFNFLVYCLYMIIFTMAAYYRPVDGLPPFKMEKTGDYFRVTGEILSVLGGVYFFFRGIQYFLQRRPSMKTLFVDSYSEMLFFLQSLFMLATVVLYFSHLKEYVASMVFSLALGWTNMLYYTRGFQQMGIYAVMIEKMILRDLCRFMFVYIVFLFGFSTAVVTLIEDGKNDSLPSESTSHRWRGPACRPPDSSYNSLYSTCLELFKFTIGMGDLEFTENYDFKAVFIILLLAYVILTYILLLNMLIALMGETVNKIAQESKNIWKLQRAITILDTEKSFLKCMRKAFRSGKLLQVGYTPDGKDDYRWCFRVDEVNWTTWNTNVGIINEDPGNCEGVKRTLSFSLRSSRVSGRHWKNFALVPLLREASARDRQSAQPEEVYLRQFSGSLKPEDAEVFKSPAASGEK
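TRPV1-expressing cells were cultured overnight at 35.5C and loaded with Fluo-8 calcium dye for 40 to 90 min at room temperature. After a 10 s baseline, compound was added and calcium influx was read kinetically for 3 min (ex 480/em 520 nm).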
Menin MLL FP FL: inhibitors of human menin-MLL interaction, wild-type MLL peptide | Fluorescence polarization, fluorescein-MLL peptide displacement from menin | AID 1766 | FP activity change, % at 61.4 µM | 290,000 tested, under 10 active; inconclusive = falling polarisation curve, or a change in total fluorescence; inactive = total fluorescence flat and polarisation flat or rising; no compound was filed as active; the % refers to the polarisation; negative = inhibition;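 also: % of control where 0% means no effect; inhibitors lower the polarisation; unlabelled MLL peptide was the positive control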
gsp antag: gsp mutant antagonism | gsp-mutant cells, cAMP HTRF, 30 min; control for the full effect not named in the record | Potency, µM (series often up to 76.9 µM), for the others: at the highest dose activity change, negative = inhibition, most hits filed as inhibitors | actives 0.4% (n = 340,000) | AID 624288; active = falling curve of any shape with a large fitted effect; inconclusive = falling curve, mostly with a smaller effect; inactive = flat or rising curve; cell line not stated here;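 also: intracellular cAMP measured with PDE inhibitor Ro 20-1724 present during compound exposure; potency is read from the fitted curve at half-maximal effect; % is scaled to controls: 0 for no effect and ±100 for the full control effect; nearly all actives have a fitted effect of over 65% in size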
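HTRF cAMP measurement after 30 min RT detection following 30 min, 37C compound treatment alongside […] (added as 300 uM solution) in G418-selected cells seeded at 2000/well and grown 16–24 h.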
gsp ag: agonists of gsp mutant (McCune-Albright syndrome); Potency, µM (titrated, usually from 76.9 µM), for the others: at the top dose activation (cAMP increase), hits mostly activators; gsp mutant cells, cAMP HTRF, 30 min; control for the full effect not named in the record; actives 0.13% (n = 340,000); AID 624287; active = well fitted activation curve with a large enough effect; inconclusive = small, poorly fitted or top-dose-only effect, or another doubt; inactive = no such curve, though single readings can be large or run the other way; cell line not stated here;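 also: phosphodiesterase inhibitor Ro 20-1724 added with compounds to block cAMP breakdown; potency is read from the fitted curve at half-maximal effect; nearly all actives have a fitted effect of over 60% in size; about a fifth of the inactives were tested at one dose only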
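Cells stably selected in G418 were plated at 2000/well, grown 16-24 hr, then given compounds in DMSO with the PDE inhibitor […] (300 uM solution added) for 30 min at 37C; cAMP was read by HTRF.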
The depositor's hits bear a star; ? = inconclusive; nt = not tested or not shown; & = joins results of further samples; [ ] = dose if it differs, or a comment.

structure	ClpP mod	Sfp PPTase inh	CtBP-E1A blk	TRPV1 PAM	Menin MLL FP FL	gsp antag	gsp ag
Cc1cc(=O)n2ccccc2c1C#N	-15%	4%	-4	11	1.9	15%	?
COCC(C)NC(=O)C1CC(=O)N(CCc2ccc(F)cc2)C1 (stereo not given)	0.2%	nt	2	nt	nt	nt	-78%[inhibitor]
CCOc1ccc(N2C(=O)CC(Sc3nc(-c4cccs4)cc(C(F)(F)F)c3C#N)C2=O)cc1 (stereo not given)	7.4%	6%	1	27	4.6	-11%	?
CC1CCN(c2nc3ccc(C(=O)NCCCN4CCCCC4)cc3s2)CC1	5.7%	1%	-2	-16	-0.2	16%	-88%[inhibitor]
N#Cc1ccc(CN2CCN(c3ccc(S(=O)(=O)N4CCCC4)cn3)CC2)cc1	0.3%	nt	0	7	nt	7%	14%
CN(C)S(=O)(=O)c1cccc(NC(=O)COC(=O)c2cn(-c3ccccc3)nc2-c2ccccc2)c1	-11%	16%	7	-5	nt	-10%	5%
O=C(O)Cn1c(C(F)(F)F)nc2ccccc21	-0.1%	18%	1	5	6.9	3%	-18%
C/C(=N/NS(=O)(=O)c1ccc(C)cc1)c1ccc(NC(=O)C(F)(F)F)cc1	-1.5%	6%	-5	5	4.6	-11%	13%[15.4 µM]
CCc1ccc(-c2nn(-c3ccccc3)cc2C2SCC(=O)N2Cc2ccco2)cc1 (stereo not given)	-6.6%	8%	-17	5	-1.8	-10%	10%
Cc1cccc(NC(=O)Nc2ccc3c(c2)CCC3)c1	0.2%	3%	9	-14	0.7	-3%	-16%
Cc1cc(-c2ccc(C)c(S(=O)(=O)NCc3ccc(Br)cc3)c2)on1	-0.1%	9%	8	6	-6.7	-31%	4%
O=S1(=O)CC/C(=N\Nc2ccccc2)c2ccsc21	2.0%	-14%	0	-7	-2.1	0%	-45%[inhibitor]
Cc1cc(-c2nnc(SCC(=O)Nc3ccccc3C)n2N)n[nH]1	1.3%	12%	1	4	nt	13%	1%
CCOc1ccc2ccccc2c1C(=O)Nc1cc(=O)n(C)c(=O)n1C	-1.6%	20%	-3	20	-7.1	5%	-2%
O=S1(=O)NC(C2CC2c2ccccc2)CCO1 (stereo not given)	-0.5%	7%	2	8	3.2	8%	nt
CC(O)C1C(=O)OC2(C)CC(C)(C)NC(=S)N12 (stereo not given)	-2.6%	-12%	-2	12	-1.0	4%	4%
COCCCNC(=O)CSc1nc2ccc(N3CCOCC3)cc2c(=O)n1CCc1ccccc1	-24%	nt	4	nt	nt	?	-19%
O=C(NCCCN1CCCC1=O)c1cccc(S(=O)(=O)N2CCN(c3ccc(F)cc3)CC2)c1	-0.1%	-1%	6	27	nt	-7%	-75%[inhibitor]
O=C(CN(C(=O)CCC(=O)Nc1ccccn1)c1cccc(F)c1)NCc1ccc(F)cc1	1.8%	10%	-1	-3	nt	11%	-4%[15.4 µM]
CCc1ccc(N2C(=O)c3cc(N4CCOCC4)c([N+](=O)[O-])cc3C2=O)cc1	nt	4%	nt	-2	1.5	nt	nt
CC(C)c1ccc(NC(=O)CCNS(=O)(=O)c2cccc3nsnc23)cc1	-2.1%&-0.2%	18%	1	3	0.9	-24%	-4%
O=C(NNC(=O)C1CC=CCC1)c1ccccc1Br (stereo not given)	0.3%	18%	1	2	-0.4	11%	6%[15.4 µM]
CC(=O)OCC(=O)C1(O)CCC2C3CC(C)C4=CC(=O)C=CC4(C)C3(F)C(O)CC21C (stereo not given)	nt	nt	-4	nt	nt	-5%	-41%[inhibitor]
CCOC(=O)Nc1ccc2c(c1)N(C(=O)N(CC)CC)c1ccccc1CC2	-9.3%	-9%	16	-5	5.6	-6%	?
FC(F)(F)c1ccccc1C1=CC(c2ccccc2)n2ncnc2N1 (stereo not given)	3.7%	nt	nt	nt	nt	0%	40%
COc1ccc2oc(C(=O)c3ccccc3)c(NC(=O)CN3CCN(C)CC3)c2c1	0.9%	-15%	-3	1	0.0	8%	4%[15.4 µM]
CCc1cccc2c(C(=O)C(NCCOC)c3ccccc3)c[nH]c12 (stereo not given)	nt	11%	0	1	3.7	-5%	12%[15.4 µM]
O=C(c1ccc(N2C(=O)CCC2=O)cc1)N1CCCSC1=Nc1ccccc1	-4.1%	nt	-6	nt	nt	nt	?
CN(C(=O)CSc1nnnn1-c1ccc(O)cc1)C1CCCCC1	-0.2%	nt	0	nt	nt	-20%	-52%[inhibitor]
CCOc1ccccc1OCC(=O)Nc1ccc(S(=O)(=O)N(C)C)cc1	-1.4%	-2%	11	0	-7.8	12%	-42%[inhibitor]

Continued:
structure	ClpP mod	Sfp PPTase inh	CtBP-E1A blk	TRPV1 PAM	Menin MLL FP FL	gsp antag	gsp ag
O=C(Nc1ccccc1)O/N=C/c1ccncc1	-24%	13%	-3	-11	-0.7	8%	23%
O=C(CNC(=O)c1ccc(Br)o1)NCc1ccc(Cl)cc1	-1.7%	5%	-14	-7	nt	-3%	1%
COC(C[C@@H](O)C[C@@H](O)[C@H](C)OCc1ccccc1)OC	2.2%	nt	3	nt	nt	8%	25%
Cc1ccccc1Nc1nnc(SCC(=O)N(C)C2CCS(=O)(=O)C2)s1 (stereo not given)	0.1%	9%	6	20	7.7	12%	-1%[15.4 µM]
COC(=O)CSc1nc(N2CCOCC2)c2c(c1C#N)CCCC2	-6.2%	16%	nt	-20	-3.6	?	?
COc1ccc(Nc2nc3ccccc3n3cnnc23)cc1Cl	-14%	0%	-24	-8	11	6%	-17%
COCCNC(=O)CCCN1C(=O)c2ccccc2Sc2ncccc21	1.7%&0.0%	10%	1	23	0.8	14%	?
C=C(C)C1CC=C(C)/C(=N\NC(=O)CCc2ccccc2)C1 (stereo not given)	3.5%	6%	-11	-3	5.4	9%	10%
COc1ccc(CN2CCN(Cc3ccon3)CC2CCO)c(C)c1C (stereo not given)	-2.2%	20%	0	-22	1.6	-2%	-19%
COc1ccc(Nc2cc(C)nc3ccccc23)cc1	-1.1%	-5%	-10	-3	6.2	0%	2%
C=CCn1c(SCC(=O)Nc2nnc(CC)s2)nnc1-c1ccco1	2.5%	2%	3	-18	-0.2	-9%	?
Cc1ccc(NC(=O)c2cccc3c2C(=O)N(C2CCCCC2)C3)c(C)c1	-1.5%&-1.6%	6%	-9	-8	nt	9%	-3%
CCOc1cc(CN2CCN(c3ccc(C(C)=O)cc3)CC2)ccc1OC	-8.6%	79µM*	-15	nt	1.4	-18%	-55%[inhibitor]
CCOc1ccc(OCC)c(S(=O)(=O)N2CCC(C)CC2)c1	-1.7%	6%	-1	-7	-1.2	-19%	17%
Cc1cccc(NC(=O)CCNS(=O)(=O)c2cccc3nsnc23)c1C	-1.4%	-10%	4	13	5.3	-1%	23%[15.4 µM]
C=CCN1C(=O)/C(=C/c2ccc(OC(C)=O)c(OCC)c2[N+](=O)[O-])SC1=S	nt	16µM*	-22	-3	?	25µM*	-119%[inhibitor]
CC1CCCC(C)N1/N=C/c1ccccc1OC(F)F (stereo not given)	nt	10%	3	21	2.6	-3%	12%
CCOc1cc(/C=N/O)cc(Cl)c1OC	-1.4%	8%	4	-2	0.1	6%[15.4 µM]	14%
Fc1cccc(Nc2cc(-n3cccn3)ncn2)c1	-9.5%	14%	12	3	4.0	-27%	4%
CC(=O)NC1=NN(C(C)=O)C(C)(c2ccc(C)cc2)S1 (stereo not given)	0.8%	15%	4	0	8.5	-7%	9%
CC(C)(CO)NCc1cc(Br)ccc1OCc1ccccc1	1.0%	-5%	12	15	5.1	3%	-43%[inhibitor]
CC(=O)NC(Cc1ccccc1)C(=O)NC1CCN(C(=O)c2cnccn2)CC1 (stereo not given)	1.4%	6%	10	?	-0.3	12%	-26%
CCOC(=O)c1[nH]c2ccc(OC)cc2c1NC(=O)c1ccccc1C(=O)O	nt	?	-14	1	?	?	32%
Cn1c2ccccc2c(=O)c2c(=O)n(-c3ccccc3)c(-c3ccc(C(C)(C)C)cc3)nc21	0.4%	-23%	nt	8	-2.4	-24%	-8%
Clc1ccc(-c2nc(-c3ccccn3)no2)cc1Cl	-17%&-0.1%	-10%	13	18	9.7	1%	29%
Cc1cc(C)c(S(=O)(=O)NCC(=O)O)cc1C	-1.5%	5%	7	-3	6.1	13%	20%
Cc1nn(C)c(C)c1/C=N/NC(=O)C(C)(C)Oc1ccc(Cl)cc1	0.5%	11%	1	-10	-0.6	3%	13%
O=C(Cn1cnc2cc([N+](=O)[O-])ccc2c1=O)N1CCN(S(=O)(=O)c2ccccc2)CC1	nt	nt	?	nt	nt	-16%	10%
CN1C(=O)C(C)(C)c2cc(S(=O)(=O)N3CCCCCC3)ccc21	1.7%	18%	-2	1	0.9	1%	-20%
CCOC(=O)c1ccccc1NC(=O)Cc1sc(-c2cccnc2)nc1-c1ccc(C)cc1	nt	-11%	nt	8	3.5	nt	nt

Additional entries
structure	ClpP mod	Sfp PPTase inh	CtBP-E1A blk	TRPV1 PAM	Menin MLL FP FL	gsp antag	gsp ag
CCN(CC)C(=O)COc1ccc(/C=N/NC(=O)c2cc(-c3ccccc3OC)nc3ccccc23)cc1OC	nt	nt	-10	nt	nt	-14%	-15%[15.4 µM]
CCNc1nc(NCC)nc(N(C)n2cnnc2)n1	-0.5%	22%	1	-4	-2.4	9%	-6%
COc1ccc(/C(C)=N/NC(=O)CNC(=O)c2ccco2)c(OC)c1	-0.3%	-5%	8	-2	0.7	7%	?
COCCN(C(=O)Nc1ccc(OC)cc1)c1nc2ccccc2s1	nt	-29%	3	-22	0.7	-7%	-1%
CCCN(CCC)C(=O)c1cc2c(=O)n3cccc(C)c3nc2s1	4.4%	2%	-9	4	-8.6	12%	?
COc1ccc(/C=C/c2ccc3ccccc3[n+]2C)cc1OC	-2.8%&-0.5%	-23%	nt	0	?	-20%	4%
Cc1ccc(Oc2ccc(C(F)(F)F)cc2[N+](=O)[O-])c([N+](=O)[O-])n1	nt	16%	-4	-5	-1.1	-2%	9%
COCCOC(=O)c1c(NC(=O)CN2c3ccccc3CC2C)sc(C(N)=O)c1C (stereo not given)	nt	7%	2	2	2.8	-74%	-2%[15.4 µM]
COC(=O)c1cc(OC)c(OC)cc1NC(=O)c1ccc(OC)cc1	-2.3%	11%	5	3	3.2	3%	-25%

Screening results deposited in PubChem BioAssay by National Center for Advancing Translational Sciences (NCATS).
